# Screens as filed in PubChem.
# Ecoli rRNA inh: inhibits bacterial ribosomal RNA function over humanized ribosomes | E. coli WT GFP vs humanized-ribosome RFP mutants, fluorescence, 24 h; active compounds read low; DMSO median 0, no signal -100 | GFP signal change (wild-type ribosome), % (test concentration not listed) | actives 1.6% (n = 350,000);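 active means significant combined selectivity score with lowered wild-type GFP, culture density cut under 30%, mutant RFP and density less affected; inactive means any of these conditions unmet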; further: one replicate is shown; some compounds called inactive have numbers as strong as hits
# T cruzi inh: blocks replication of Trypanosoma cruzi | actives 1.4% (n = 300,000) | T. cruzi beta-gal in NIH3T3, luminescence, 90 h | inhibition, % (no concentration beside the values) | AID 1885;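 active means mean inhibition across valid replicates above about 55%, limit read from the data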;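 further: signal also drops with host cell toxicity which is not excluded here; 0% = plate median of DMSO wells and 100% = zero luminescence signal; higher percent means less beta-gal luminescence so fewer parasites; stock transfer was 50 nL into about 50 µL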
# E coli growth: inhibitors of Escherichia coli growth; OD600, 23 h; active compounds read low; OD600 absorbance (no concentration beside the values); actives 0.21% (n = 330,000);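 active means OD600 absorbance below the run mean of sample wells minus 3.6 SD, in any replicate, cut at about 0.56 in these data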;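 further: stock transfer was 300 nL into about 60 µL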
# MLL AF4-AF9 inh: inhibitors of human MLL-AF4/AF9 interaction | P42568 | AlphaScreen, biotin-AF4 peptide binding to FLAG-AF9 | inhibition, % at 10 µM | actives 0.47% (n = 350,000) | AID 651704;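 active means every replicate reaching a set inhibition limit, whatever the replicate mean, cut at about 25% in these data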;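 further: 0% = plate neutral control median and 100% = total signal loss; the record names both 10 and 1 µM as test concentration; the first replicate is given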
# Target sequence (P42568 whole entry, looked up): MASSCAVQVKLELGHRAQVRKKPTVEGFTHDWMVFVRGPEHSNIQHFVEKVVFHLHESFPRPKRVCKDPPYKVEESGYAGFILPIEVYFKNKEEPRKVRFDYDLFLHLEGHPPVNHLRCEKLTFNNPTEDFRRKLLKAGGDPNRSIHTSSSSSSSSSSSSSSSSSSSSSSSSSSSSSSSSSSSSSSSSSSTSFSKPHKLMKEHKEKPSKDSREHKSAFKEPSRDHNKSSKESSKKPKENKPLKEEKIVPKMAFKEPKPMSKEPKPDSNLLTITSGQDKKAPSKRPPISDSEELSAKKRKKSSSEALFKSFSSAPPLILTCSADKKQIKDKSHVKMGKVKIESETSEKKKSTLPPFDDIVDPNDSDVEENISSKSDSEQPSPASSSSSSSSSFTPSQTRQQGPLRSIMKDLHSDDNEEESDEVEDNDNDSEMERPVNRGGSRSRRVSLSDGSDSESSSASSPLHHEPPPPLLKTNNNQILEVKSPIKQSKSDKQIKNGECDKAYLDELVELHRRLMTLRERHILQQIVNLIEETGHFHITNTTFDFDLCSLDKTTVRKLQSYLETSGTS
# Bfl-1 A1 inh: inhibitors of the anti-apoptotic protein A1, read as caspase activation; caspase activation, % (no concentration beside the values); actives 0.066% (n = 330,000); MEF A1-2A-BIM cells, Caspase-Glo 3/7 luminescence, 3 h; percent of clofoctol response, vehicle zero;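 active means over half of replicate activation scores above 10%, or exactly half above 10 with the replicate mean above 10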;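 further: wells of about 30 µL received 50 nL stock; many hits fall short of the cut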
# UCH37 inh: inhibitors of human deubiquitinating enzyme UCH37. purified proteasome/UCH37, Ub-AMC cleavage fluorescence. inhibition, % (concentration not given with the values). actives 0.33% (n = 330,000);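 active means mean of two replicates above 20%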;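 further: 0% = compound-free wells with enzyme and 100% = wells lacking proteasome; stock transfer was 100 nL into about 20 µL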
# Target sequence (Q9Y5K5 whole entry, looked up): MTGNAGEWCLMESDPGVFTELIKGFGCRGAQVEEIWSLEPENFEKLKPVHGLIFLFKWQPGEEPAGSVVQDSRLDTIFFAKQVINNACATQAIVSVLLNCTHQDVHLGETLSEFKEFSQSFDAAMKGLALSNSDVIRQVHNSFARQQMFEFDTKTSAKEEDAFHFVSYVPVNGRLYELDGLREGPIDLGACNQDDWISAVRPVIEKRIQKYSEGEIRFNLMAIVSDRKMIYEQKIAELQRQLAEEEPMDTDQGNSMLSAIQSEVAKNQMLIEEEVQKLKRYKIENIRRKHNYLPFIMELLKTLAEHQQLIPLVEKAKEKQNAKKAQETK
#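 system = Proteasome-associated human UCH37 deubiquitinase | amount = 0.15 nM proteasome as dispensed | medium = pH 7.4 Tris-HCl (50 mM) with ovalbumin, ATP-MgCl2, DTT | incubation = 30 min preincubation with enzyme, 25 min cleavage at room temperature | detection = AMC fluorescence 355/460 nm | read-out basis = percent inhibition | controls = no-proteasome and no-compound wells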
# Beta apoptosis: beta cell apoptosis inhibition; INS-1E cytokine-induced death, ATP luminescence, 48 h; percent of positive-control rescue, neutral wells zero; protection from apoptosis, % (no concentration beside the values); actives 0.8% (n = 300,000); AID 435005;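 active means all replicates at 75% or more, or half of them and the mean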;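 further: 0% = cytokine-treated negative control wells and 100% = positive control rescue; higher means more ATP so stronger rescue from cytokine killing; wells of about 40 µL received 100 nL stock; the first replicate is given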
# FGF22 binding: shifts melting point of recombinant human FGF22; AID 651658; actives 1.5% (n = 340,000); calls only at 9.99 µM; Q9HCT0; recombinant FGF22 thermal shift, SYPRO orange fluorescence; percent of sucrose octasulfate shift, DMSO zero;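 active means melting point raised past a set limit in the mean and every replicate; three in four hits are not shown here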
# Target sequence (Q9HCT0 whole entry, looked up): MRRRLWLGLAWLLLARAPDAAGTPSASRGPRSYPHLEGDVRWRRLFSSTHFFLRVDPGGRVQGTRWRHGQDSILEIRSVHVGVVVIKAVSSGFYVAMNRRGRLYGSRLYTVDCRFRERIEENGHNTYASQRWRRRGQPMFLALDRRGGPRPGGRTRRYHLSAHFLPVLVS
# Ecoli rRNA inh OD600: recorded beside Ecoli rRNA inh, whose call it bears; OD600 change, %; measured here: OD600 growth;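 optical density of the mix in the first replicate; 0 = DMSO median and -100 = no signal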
# Ecoli rRNA inh RFP: also measured in Ecoli rRNA inh; calls as there; RFP signal change, %; measured here: RFP humanized mutant strains;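 first replicate; 0 = DMSO median and -100 = no signal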
# * hit, by the source's call; i = inactive; / = not tested or not shown. Only part of the results is shown; the hit share may differ from the screen's.
SMILES,Ecoli rRNA inh,Ecoli rRNA inh OD600,Ecoli rRNA inh RFP,T cruzi inh,E coli growth,MLL AF4-AF9 inh,Bfl-1 A1 inh,UCH37 inh,Beta apoptosis,FGF22 binding
CCCn1cnc2cc(NCc3ccccc3O)ccc21,7,0,4.2,-14,0.62,1.9,0.1,-11,-2,i
COc1cc(NS(=O)(=O)c2ccc(NC(=O)c3ccc(S(=O)(=O)N4CCCCC4)cc3)cc2)ncn1,17,8,-1.5,5,0.7,-4.4,-0.1,8.2,-2,i
CCOC(=O)[C@@H]1[C@H]2COc3ccccc3[C@@H]2N2C(=O)N(c3ccc(F)cc3)C(=O)[C@]12C,-6,-4,-7.4,4,/,-2.8,-0.2,0.5,1,i
Cn1cc(CNC(=O)c2cc(-c3ccc(Br)cc3)nc3ccccc23)cn1,13,7,-4.2,8,0.65,-0.1,-0.3,-8.2,-7,i
CCOc1ccc(/C=C/C(=O)NC2CCCCC2)cc1,13,22,3.6,-5,0.67,0.7,-1.3,-0.4,-2,i
C/C(=C\c1ccc(Cl)cc1)C(=O)c1c(C)cc(C)[nH]c1=O,1,-2,4.2,8,0.68,-2.2,0.3,2.9,0,i
CCOC(=O)/C=c1/s/c(=C\c2c(OC)ccc3ccccc23)c(=O)n1CC(=O)NCC1CCCO1 (centres undefined),23,3,16,/,0.71,5.3,/,5.4,/,i
Cc1cc(C)n(CCCNC(=O)c2ccc(C)o2)n1,5,7,-1.9,/,0.63,0.4,-1.2,5.0,0,i
O=C(c1ccc(CS(=O)c2cccc(Cl)c2)o1)N1CCCCCC1 (centres undefined),-1,-29,-4.2,0,0.66,-0.3,0.0,-1.5,-15,i
CN(Cc1ccccc1Br)C(=O)CSc1nnnn1C1CC1,-4,-4,-3.8,/,0.68,-7.0,0.5,-0.3,-4,i
COC(=O)c1cc(NC(=O)CN(C)Cc2ccccc2)cc(C(=O)OC)c1,-6,-5,-4.8,-24,0.67,3.1,0.9,-93,-4,/
COc1ccc(OC)c(S(=O)(=O)N2CCC(C(=O)Nc3cccc(C)c3)CC2)c1,-13,-19,2.5,7,0.7,0.6,0.5,-0.4,-2,i
O=C(Nc1nnc(C(F)(F)F)s1)c1ccc(N2C(=O)C3C4C=CC(C4)C3C2=O)cc1 (centres undefined),/,/,/,-5,0.68,/,-0.1,6.8,3,/
COc1ccc(OC)c(C(=O)c2c(C)oc3cc([N+](=O)[O-])c(O)c([N+](=O)[O-])c23)c1,-16,-5,2.3,9,0.67,-4.1,-0.4,14,-1,i
COc1cc(OC)cc(C(C)=O)c1,/,/,/,-11,0.73,-1.1,0.8,5.0,2,/

# Reprinted at random: four entries already listed.
SMILES,Ecoli rRNA inh,Ecoli rRNA inh OD600,Ecoli rRNA inh RFP,T cruzi inh,E coli growth,MLL AF4-AF9 inh,Bfl-1 A1 inh,UCH37 inh,Beta apoptosis,FGF22 binding
Cc1cc(C)n(CCCNC(=O)c2ccc(C)o2)n1,5,7,-1.9,/,0.63,0.4,-1.2,5.0,0,i
COc1cc(OC)cc(C(C)=O)c1,/,/,/,-11,0.73,-1.1,0.8,5.0,2,/
CCOc1ccc(/C=C/C(=O)NC2CCCCC2)cc1,13,22,3.6,-5,0.67,0.7,-1.3,-0.4,-2,i
O=C(c1ccc(CS(=O)c2cccc(Cl)c2)o1)N1CCCCCC1 (centres undefined),-1,-29,-4.2,0,0.66,-0.3,0.0,-1.5,-15,i

# Next section:
SMILES,Ecoli rRNA inh,Ecoli rRNA inh OD600,Ecoli rRNA inh RFP,T cruzi inh,E coli growth,MLL AF4-AF9 inh,Bfl-1 A1 inh,UCH37 inh,Beta apoptosis,FGF22 binding
Cc1ccc2c(CC(=O)N3CCOCC3)coc2c1,5,-1,-2.2,-10,0.71,-0.4,0.4,-0.6,-3,i
COc1ccc(-n2c(=O)c3ccccc3n(CC(=O)c3ccccc3)c2=O)cc1OC,11,6,-0.5,-3,0.68,-11,-0.4,2.2,-7,i
COC(=O)[C@@]12CCCN1[C@H](c1ccc(-c3ccc(C(C)=O)cc3)c(OC)c1)[C@H]1C(=O)N(C)C(=O)[C@H]12,-2,4,-0.1,/,/,2.5,-0.1,4.5,-1,i
CCN(CC(=O)NC1CCS(=O)(=O)C1)S(=O)(=O)c1ccc(Br)cc1 (centres undefined),/,/,/,/,0.66,-4.6,-0.4,0.6,-3,i
CCCN(Cc1cc2cccc(C)c2[nH]c1=O)S(C)(=O)=O,9,-4,-7.4,5,0.66,10,0.3,-2.1,3,i
CCN(CC)Cc1c(C(=O)N/N=C/c2cccc3ccccc23)nnn1-c1nonc1N,1,10,-0.2,6,/,-0.5,0.2,/,-4,i
Nc1cnccc1C(=O)O,20,27,9.7,0,0.77,-6.8,0.1,-242,-2,i
O=C(Nc1cccc2ccccc12)NC1CCCCC1O (centres undefined),15,5,0.4,-8,0.69,-6.9,-0.5,2.7,5,i
CC1CCC(C(C)C)C(OC(=O)Cn2c(-c3ccc(F)cc3)[n+](C)c3ccccc32)C1 (centres undefined),-47,-65,-15,/,0.63,-66,1.1,4.8,105*,i
CC(C(=O)c1ccccc1)n1c(N2CCOCC2)nc2c1c(=O)n(C)c(=O)n2C (centres undefined),/,/,/,-5,0.67,/,-0.3,2.3,-4,/
Cn1ccnc1SCC(=O)Nc1cccc(S(=O)(=O)N2CCCCC2)c1,-6,1,0.8,4,0.67,3.2,-0.1,-3.2,-15,i
CCCc1nnc(NC(=O)CCC(=O)N2CCC(C)CC2)s1,-1,-5,-0.2,-4,0.67,-0.1,1.0,0.3,-6,i
CCOC(=O)CSc1nnc([C@H](Cc2ccccc2)NC(=O)OC(C)(C)C)o1,/,/,/,-4,0.71,/,0.2,4.7,2,/
CC1=C(C(N)=O)C(c2ccc3c(c2)OCO3)n2nc(-c3cccc(C)c3)nc2N1 (centres undefined),/,/,/,3,0.71,/,3.1,-0.8,-22,/
COCC(C)n1c(SCC(=O)Nc2ccc3c(c2)OCCO3)nc2ccccc2c1=O (centres undefined),-28,-33,-2.5,/,0.71,4.4,-0.2,4.2,-2,i
O=C(Nc1ccc(OC(F)(F)C(F)F)c(NC(=O)c2ccc(F)cc2)c1)c1ccc(F)cc1,/,/,/,12,0.7,/,0.5,2.2,6,/
CCN(C(=O)c1ccc(Cl)c(S(=O)(=O)Nc2c(C)n(C)n(-c3ccccc3)c2=O)c1)c1ccccc1,11,12,0.6,/,0.66,-1.7,2.1,1.9,10,i
Cc1cccc(NC(=O)C2CC(=O)OC23CCCCC3)c1 (centres undefined),/,/,/,8,0.73,/,-0.1,6.6,4,/
CC(C)c1ccc(/C=C/C2=NNC(=O)CC2)cc1,-23,-30,-6.4,-27,0.68,3.9,-9.8,6.3,2,i
Cc1ccc(NC(=O)COC(=O)Cc2ccsc2)cc1S(=O)(=O)N1CCOCC1,/,/,/,0,0.73,/,-1.2,-0.7,-6,/
COc1ccc([N+](=O)[O-])cc1NC(=O)Cc1noc2ccc(C)cc12,10,3,-1.4,-1,0.72,0.9,0.3,0.4,3,i
COc1cccc(-n2nnnc2SCC(=O)Nc2ccc(C(C)=O)cc2)c1,/,/,/,0,0.68,/,0.5,1.2,4,/
O=C(CCCNC(=O)/C(=C/c1ccc(Br)cc1)NC(=O)c1ccccc1)OCc1ccccc1,2,7,-1.3,2,0.7,-3.6,0.2,-0.9,-6,i
CC(C)(C)n1ncc2c(=O)n(Cc3cccc(Cn4cnc5c(cnn5C(C)(C)C)c4=O)c3F)cnc21,5,2,-11,/,0.73,2.3,-1.0,1.9,87*,i
S=C(Nc1ccc(Br)cc1Cl)N1CCCC1,-19,-7,-2.4,-7,0.74,-0.5,-3.2,0.3,-5,i
CSc1nc2c(c(=O)[nH]1)C(c1ccc(C(F)(F)F)cc1)CC(=O)N2 (centres undefined),10,4,1.1,-1,0.68,-1.5,0.1,0.4,/,/
CCc1c(C)[nH]c2ccccc2c1=O,/,/,/,/,0.69,/,0.9,3.9,-5,/
Cc1ccc(NC(=O)C2CCN(c3cnccn3)CC2)cc1,2,0,-9.0,63*,0.7,-0.8,0.7,-10,-4,i
Cc1ccc2c(c1)C(c1ccccc1)N(C(=O)c1c(F)cccc1Cl)CC(=O)N2 (centres undefined),-25,-30,-2.5,-2,0.64,7.1,-1.3,3.1,-11,i
COc1ccccc1-n1cnc2sc(C)c(C)c2c1=O,0,0,-0.4,-9,0.67,-0.2,-2.1,2.4,-6,i
CCOc1ccc(CC2CCC(=O)NC2=O)cc1 (centres undefined),/,/,/,1,0.69,-4.1,0.5,6.5,10,i
Cc1cccc(/C=C2/C(=O)/C(=C/c3ccccc3C)C3CCC2N3C)c1 (centres undefined),/,/,/,-4,0.76,/,0.1,5.3,12,/
COCCOC1CCN(Cc2cn(Cc3ccccc3)nc2-c2cc3ccccc3o2)CC1,-1,-5,2.6,2,0.68,-15,-0.3,2.4,3,i
C=CCN(CC=C)CC(=O)Nc1cccc(Oc2cnccn2)c1,8,4,0.2,-4,0.68,-1.5,-0.3,2.6,1,i
Cc1oc(C(=O)O)cc1CSCc1ccoc1C(=O)O,/,/,/,-4,0.68,/,0.0,0.3,-8,/
COc1cccc(-n2ccnc2SCC(=O)N2CCCc3ccccc32)c1,-41,-58,1.3,-9,0.68,10,0.1,1.6,3,i
CC(=O)c1ccccc1NC(=O)COC(=O)c1cc(C)oc1C,1,9,-3.7,/,0.71,-0.1,0.1,-1.3,-2,i
COc1ccc(S(=O)(=O)N2CCC(C(N)=O)(N3CCCCC3)CC2)cc1,0,4,0.4,-5,0.75,-1.6,-0.1,1.1,2,i
CC(C)N1CCN(Cc2nc3c(s2)CCCC3)CC1CCO (centres undefined),12,11,1.4,10,0.71,1.7,0.0,3.4,-2,/
CCOC(=O)N1CCN(C(=O)CSc2nnc(C3COc4ccccc4O3)o2)CC1 (centres undefined),2,-7,0.0,-12,0.7,-3.6,1.0,1.6,-8,i
O=[n+]1c2c(n([O-])c3cc(F)c(N4CCCC4)cc31)CCCC2,/,/,/,2,0.7,/,0.2,12,-3,/
O=C(N/N=C/c1cccc(Br)c1)c1ccc(N2CCCC2=O)cc1,9,14,0.5,-6,/,-4.3,0.1,/,17,i
CCOC(=O)C1=C(CSc2nccn2C)NC(=O)NC1c1cc(C)ccc1C (centres undefined),19,2,1.8,-2,0.67,-23,0.2,3.6,-5,i
CCCCn1cnc2c(SCc3ccccc3)nc(N)nc21,-12,-38,-6.8,/,0.71,0.3,/,1.0,/,i
O=C1C=C(Nc2ccc(O)cc2)C(=O)c2ccccc21,-29,-33,-11,-9,0.69,-37,-8.0,6.3,100*,i
COc1ccc(-c2cn(-c3ccc(Cl)cc3)c3[n+]2CCCCC3)cc1,-35*,-0.5*,7.8*,58*,0.68,-0.6,-0.7,3.7,100*,i
CC[C@]12c3[nH]c4ccc(OC)cc4c3CCN1C(=O)C(CC(=O)NCCCOC)C[C@@H]2C(=O)N1CCN(C(=O)c2ccco2)CC1 (some centres undefined),13,10,-0.9,/,0.72,5.6,/,0.9,/,i
